Bioassay records (PubChem BioAssay)
Mtb hypoxia inh = inhibitors of hypoxia-regulated fluorescent reporter in Mycobacterium tuberculosis; M. tuberculosis hypoxia-regulated fluorescent reporter, fluorescence; fluorescence inhibition, % (test concentration not listed); hit rate 0.1% among 300,000; AID 1159583;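 active = 35 to 45% if threefold the growth effect, above 45% if 1.5-fold the growth effect; inactive = the rest, general growth blockers included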;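 note: wells of about 50 µL received 100 nL stock; 0% = vehicle wells and 100% = reference inhibitor wells; whole bacteria with a GFP reporter of the hypoxia response; strong numbers were not always called active; many hits fall short of the cut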
RN4220 kill = kills Staphylococcus aureus RN4220 | inhibition, % (concentration not given with the values) | AID 1259311 | hit rate 0.33% among 330,000 | S. aureus RN4220 growth, OD600, 16 h;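 active = z-score of -3 or lower and OD600 up to 0.18 on both plates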;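 note: plate controls were untreated cells for no effect and reference antibiotic for full effect; stock transfer was 100 nL into about 80 µL; one replicate is shown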
Bead autofluor = counter-screen for toxin protease inhibitors: compound fluorescence. fluorescence intensity (no concentration beside the values). hit rate 3.1% among 360,000. compound autofluorescence counterscreen, microsphere flow cytometry; hits give high values;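 active = at least 3 SD above the mean of all compounds, about 16000 in these data; inconclusive = too few beads counted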;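 note: 100 nL of 1 mM stock went into each well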
BJeLR lethal = BJeLR cell viability loss; BJeLR (HRASV12) viability, CellTiter-Glo ATP luminescence, 48 h; reference of the scale not given here; inhibition, % (concentration not given with the values); hit rate 0.17% among 300,000; AID 1554;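 active = replicate mean above 50%; inconclusive = above 50% but judged a plate artefact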;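 note: 50 nL library stock added to about 25 µL; numbers are from one replicate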
PrP UTR inh = inhibition of PrP 5' UTR reporter expression; cell-based PrP 5' UTR mRNA reporter, plate reader; inhibition, % (concentration not given with the values); hit rate 0.35% among 340,000;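 active = every replicate at 50% or more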;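 note: 0 = median of the neutral control wells; tested in H4 reporter cells; numbers are from one replicate; inactives centre near -14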
Sa ugtP lethal = growth inhibition of S. aureus ugtP deletion strain | growth inhibition, % (test concentration not listed) | hit rate 0.54% among 330,000 | S. aureus RN4220 ugtP deletion, OD600 growth, 16 h; some inactives read as strong as hits;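 active = z-score under -3 and OD600 up to 0.15 on both plates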;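 note: plate controls were untreated wells for no effect and antibiotic for full effect; wells of about 80 µL received 100 nL stock; the first replicate is given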
Mtb hypoxia inh growth = second read-out of Mtb hypoxia inh, no call of its own (marks repeat the call); growth inhibition, %; measured here: M. tuberculosis growth (absorbance);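 0% = vehicle and 100% = reference antibiotic; read after six days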
Numbers without * were called inactive; ? = inconclusive; · = no result given.

SMILES	Mtb hypoxia inh	Mtb hypoxia inh growth	RN4220 kill	Bead autofluor	BJeLR lethal	PrP UTR inh	Sa ugtP lethal
COC(=O)c1nc2n(n1)C(c1ccc(OC)c(OC)c1)C(C(=O)OC1CCCCC1)=C(C)N2 (stereo unspecified)	8	1	9.1	6939	1	-18	-4
O=C(CCN1C(=O)c2ccccc2C1=O)NC(=S)Nc1cccc(Cl)c1	·	·	-2.4	4004	-2	-10	7
O=C(NNC(=O)c1ccco1)c1ccccc1	1	1	3.7	2462	0	-24	0
CCOC(=O)c1nnsc1N	-7	-10	2.8	3899	2	0	4
CCCC1Cc2nc(Cl)c(C#N)cc2CO1 (stereo unspecified)	9	5	7.2	·	-1	·	6
CN1CCN(C2=C(Cl)C(=O)N(CCc3ccccc3)C2=O)CC1	8	0	5.9	4023	0	-44	-6
O=c1cc(CSc2ccccc2)[nH]c(=S)[nH]1	2	1	2.5	3935	12	-15	1
O=C(NCc1ccccc1)c1ccc(S(=O)(=O)N2CCCc3ccccc32)cc1	6	3	4.6	?	6	-7	-6
O=C(Nc1nc2c(s1)CCCC2)c1cccnc1	-2	3	3.5	8134	3	-91	1
CN(C)c1ccc(CN(Cc2ccco2)C(=O)c2ccco2)cc1	1	-15	0.8	4628	-5	-8	2
COC(=O)c1sc(S(=O)(=O)N2CCN(c3ccccc3F)CC2)c(C(=O)OC)c1C	16	7	1.1	3391	·	-14	28
O=C(NN=Cc1ccc(Oc2ccccc2)cc1)c1csnn1	3	-5	4.9	·	·	·	5
Cc1ccc(NC(=O)c2cnccn2)nc1	3	-1	4.7	6095	3	-26	0
COc1ccc(NC(=O)c2sc3ncn(CC(=O)N4CCCCC4)c(=O)c3c2C)cc1OC	2	4	2.0	5887	-5	4	0
O=C(c1ccc(Cl)cc1)c1cnc(Nc2ccccc2Cl)s1	1	5	2.9	20938*	9	-56	9
CCOC(=O)c1csc(NC(=O)COc2ccc(Cl)cc2Cl)n1	-8	-1	6.2	1965	10	-10	-16
O=C(CSc1ccccc1F)NCC1(N2CCCCC2)CCCCC1	7	3	-0.3	5322	·	-10	6
COc1cccc(N2CCN(C(=O)/C=C/c3ccco3)CC2)c1	-1	1	0.9	4636	-3	-35	2
O=S(=O)(c1ccccc1)N1CCN(S(=O)(=O)c2ccccc2)C1	·	·	2.6	2804	0	-6	4
COc1cc(-c2nnc3sc(Cc4ccc(Cl)cc4)nn23)cc(OC)c1OC	-1	6	7.5	5003	6	-7	16

Retrieved by compound from the entries so far:
SMILES	Mtb hypoxia inh	Mtb hypoxia inh growth	RN4220 kill	Bead autofluor	BJeLR lethal	PrP UTR inh	Sa ugtP lethal
Cc1ccc(NC(=O)c2cnccn2)nc1	3	-1	4.7	6095	3	-26	0
O=C(NN=Cc1ccc(Oc2ccccc2)cc1)c1csnn1	3	-5	4.9	·	·	·	5
COc1ccc(NC(=O)c2sc3ncn(CC(=O)N4CCCCC4)c(=O)c3c2C)cc1OC	2	4	2.0	5887	-5	4	0
COC(=O)c1sc(S(=O)(=O)N2CCN(c3ccccc3F)CC2)c(C(=O)OC)c1C	16	7	1.1	3391	·	-14	28

(next part)
SMILES	Mtb hypoxia inh	Mtb hypoxia inh growth	RN4220 kill	Bead autofluor	BJeLR lethal	PrP UTR inh	Sa ugtP lethal
CC(=NNC(=O)c1nonc1N)c1cccs1	4	2	4.9	·	·	·	5
COc1cc(C(=O)N2CCN(Cc3ccccn3)CC2)cc(OC)c1OC	7	-1	4.8	4362	0	-25	12
CCC(=O)NCc1ccc2[nH]c(C)cc2c1	5	10	-0.4	5156	13	-18	3
CCn1c(SCC(=O)Nc2ccc(N3CCOCC3)cc2)nnc1-c1ccc(OC)cc1	-8	6	-4.3	11161	-5	-8	-8
NCCOc1ccc(C23CC4CC(CC(C4)C2)C3)cc1	5	-1	3.6	4484	6	-48	-7
CCN(Cc1ccccc1)C(=O)c1cccc(S(=O)(=O)N2CCN(c3ccc(F)cc3)CC2)c1	-2	-1	4.1	?	-1	-7	7
COc1cc(/C(C)=N/NC(=S)NC(C)C)cc(OC)c1OC	·	·	·	1959	2	-3	·
CC1CN(Cc2cc(=O)n3ccsc3n2)CC(C)O1 (stereo unspecified)	·	·	3.1	3517	-4	20	8
O=C(Cc1ccc(Br)cc1)NCCc1ccc(F)cc1	9	-1	-0.7	3964	5	-10	3
Cc1c(N2C(=O)/C(=C\c3ccccc3O)SC2=S)c(=O)n(-c2ccccc2)n1C	-2	5	14	4652	3	-8	-6
COCCn1c(C)cc(C(=O)COC(=O)C2CC(=O)N(CCc3ccc(OC)c(OC)c3)C2)c1C (stereo unspecified)	-12	-1	2.6	6549	-4	-8	1
O=C(O)C1CCN(c2ncccn2)CC1	4	3	-9.9	2943	4	-12	-7
CC(=O)CSc1ccc(-c2nc3ccccc3[nH]2)cn1	12	6	11	4391	30	-14	14
CCOC(=O)C1(Cc2ccccc2C(F)(F)F)CCN(C(C)CSC)CC1 (stereo unspecified)	16	10	3.7	3423	-1	-15	-1
COc1ccc(CCNC(=O)C2CCCN(c3ncnc4c3nc3n4CCCCC3)C2)c(OC)c1 (stereo unspecified)	6	-9	2.3	4561	0	9	4
COc1ccc(S(=O)(=O)Nc2cccc3c2O[C@H](CN(C)S(=O)(=O)c2cccs2)[C@@H](C)CN([C@H](C)CO)C3=O)cc1	-4	9	-0.1	3838	·	-14	-12
CCOC(=O)C1(CCOc2ccccc2)CCN(Cc2ccc(-n3cccn3)cc2)CC1	-11	8	-1.8	3544	12	-2	-5
O=C(NCc1ccc(F)cc1)C1CCCN1C(=O)Nc1cccc(F)c1 (stereo unspecified)	3	-2	2.7	·	-6	-18	11
Cc1ccccc1C(=O)c1cccn1CC(=O)NCCC1=CCCCC1	14	9	3.8	4505	13	-8	4
CCOc1ccccc1-n1nnnc1SCC(=O)O	13	18	2.2	4827	9	4	4
CCOc1ccccc1NC(=O)CSc1nc(=O)n(CCCN2CCOCC2)c2c1CCCC2	5	4	1.5	5800	13	-9	-3
Cc1ccc2nc(-c3ccc(NC(=O)CN4CCN(C(=O)c5ccco5)CC4)cc3)sc2c1	-6	-8	-4.9	8944	2	-49	-20
O=C(CSc1ncccn1)n1c2c(c3ccccc31)CCCC2	12	8	11	18875*	0	-21	-12
O=C(CSc1ccccc1)Nc1nnc(-c2ccco2)o1	8	6	1.0	4780	-6	-5	-2
CC1CCCC(C)N1C(=O)c1ccc(S(=O)(=O)NCc2ccco2)cc1 (stereo unspecified)	13	7	4.3	3434	3	-19	8
O=C(C=Cc1ccccn1)c1ccccc1O	·	·	9.1	3459	·	-19	7
O=C(NC(=O)c1ccccc1F)OCc1ccc(Cl)cc1Cl	4	-5	7.0	6264	4	-33	6
Cc1ncc(C(=O)Nc2ccccc2)[nH]1	12	8	4.6	3796	·	-62	5
CC(=O)c1ccccc1NC(=O)C1CCCN(C(=O)c2ccc(Cl)cc2)C1 (stereo unspecified)	-11	3	-5.6	?	·	·	-7
Cc1ccccc1-c1nnnn1C1CCS(=O)(=O)C1 (stereo unspecified)	1	4	1.7	2237	-3	-82	8
O=[N+]([O-])c1ccc2sc(SCc3nc4ccccn4c3Br)nc2c1	14	7	11	·	0	·	1
O=C(NN=Cc1ccccn1)c1ccccc1	-4	7	4.2	·	·	·	-1
CCOc1ccccc1CN1CCN(C2CCSCC2)CC1CCO (stereo unspecified)	5	6	7.8	4806	7	-23	8
CCOC(=O)C(CCCCCOc1ccccc1[N+](=O)[O-])C(=O)OCC	-9	-9	6.0	2063	11	-27	24
Cc1ccc(-c2nn(Cc3ccccc3)cc2/C=C/C(=O)O)cc1	·	·	·	3175	6	-4	·
C/C(=N/NC(=O)c1cc(C)[nH]n1)c1ccncc1	·	·	·	2832	-4	-9	·
O=C(c1cc(-c2ccccc2)n[nH]1)N1CCc2c([nH]c3ccccc23)C1c1ccccn1 (stereo unspecified)	5	1	-6.9	2323	3	-16	9
COc1cc(C=NNc2nc3c(c(=O)n(C)c(=O)n3C)n2Cc2ccccc2)ccc1OC(=O)c1ccco1	9	4	-0.8	·	·	·	-3
COCCCNC(=S)Nc1ccc(C)cc1[N+](=O)[O-]	1	2	0.6	4293	2	-51	-12
COc1cccc(NC(=O)CN(C)C(=O)CSC(=S)N2CCCC2)c1	9	4	5.1	?	3	-17	6
CCOc1ccc(Nc2c3ccccc3nc3ccccc23)cc1	15	10	-4.6	3366	28	14	11
O=S(=O)(NCCc1ccncc1)c1cc(Br)ccc1F	17	6	4.0	4018	-2	1	14
Cc1cc(C(C#N)c2ccccc2)n2ncnc2n1 (stereo unspecified)	3	-1	-0.5	3187	1	-10	10
O=C(COC(=O)c1ccccc1)c1ccc2c(c1)OCCO2	3	-7	3.9	6777	·	30	5
CN(C)CCCNC(=O)C(=NO)c1ccccc1	-3	-5	-1.2	·	·	·	-4
COc1ccc(OCC(=O)Nc2ccc(S(=O)(=O)N(C)c3ccccc3)cc2)cc1	3	1	2.5	6063	-9	-6	-4
CCc1ccc(NC(=O)C(=O)NNC(=O)c2cccc(OC)c2)cc1	10	1	4.0	6014	-16	-8	-14
Cc1cc(C)nc(N=Nc2c(O)n(Cc3ccc(Cl)cc3)c3ccccc23)n1	4	3	-2.0	2104	9	-19	2
COc1ccc(CN2CCC(N3CC(C)OC(C)C3)CC2)c(OC)c1OC (stereo unspecified)	22	12	1.5	3793	0	-14	5
c1ccc(C2(N3CCCCC3)CCCCC2)cc1	·	·	0.4	5430	·	4	1
Other entries
SMILES	Mtb hypoxia inh	Mtb hypoxia inh growth	RN4220 kill	Bead autofluor	BJeLR lethal	PrP UTR inh	Sa ugtP lethal
Cc1ccc(C)c(Sc2ccc(S(=O)(=O)Nc3ccc(C(=O)O)cc3)cc2)c1	7	6	17	7932	·	-8	6
Cc1cc(C)c2cc(CN(CCO)C(=O)Nc3ccc(F)cc3)c(=O)[nH]c2c1	3	5	7.8	2672	-9	-6	-3
COC(=O)c1cc[n+](CC(=O)c2ccccc2)cc1	4	2	1.7	2886	14	-10	4
CN1CCN(/N=C/c2nc(-c3ccccc3Cl)n3ccccc23)CC1	·	·	·	2404	1	-10	·
Cc1ccnc(NC(=O)c2ccc3c(c2)C(=O)N(CC2CCCO2)C3=O)c1 (stereo unspecified)	3	3	2.5	4253	0	-40	15
CCN(CC)S(=O)(=O)c1ccc(-c2nnc(SCC(=O)N3c4ccccc4CC3C)n2CC)cc1 (stereo unspecified)	4	3	2.9	2093	-8	-5	8
Cc1ccc(NC2=C/C(=N/S(=O)(=O)c3cccs3)c3ccccc3C2=O)cc1C	·	·	·	1871	-2	-12	·
O=C(c1ccccc1S(=O)(=O)NCC(O)COc1ccc([N+](=O)[O-])cc1)N1CCCCC1 (stereo unspecified)	·	·	3.5	3261	11	-3	-5
CC(C)CC(=O)NCCCCc1ccccc1	12	1	3.6	2067	-2	-35	2
CCCn1nnnc1NCc1ccc(OC)cc1OC	3	8	1.7	3552	-2	-2	0
CCS(=O)(=O)N1CCCC(C(=O)NCC2CCCO2)C1 (stereo unspecified)	11	5	8.1	2928	-10	-12	7
COc1cccc(/C=N/NC(=O)c2nnn(-c3nonc3N)c2C(C)C)c1OCc1ccc(F)cc1	·	·	·	5237	-5	-12	·
CCCOP(=O)(c1ccc(N(C)C)cc1)C(O)c1cc(OC)ccc1OC (stereo unspecified)	18	6	0.6	5249	9	-16	4
COc1cccc(NC(=O)CN(C)CC(=O)Nc2ccc(Br)cc2)c1	4	8	1.5	4191	-5	-20	4
O=C(O)CCCCOn1ccnc1	6	-1	5.1	4425	-1	-15	8
O=[N+]([O-])c1ccc(N2CCSCC2)cc1	9	2	4.2	3504	6	-22	-5
COc1ccccc1C1=NOC(COC(=O)c2ccc(Br)cc2)C1 (stereo unspecified)	17	3	17	1964	-1	4	0
COC(=O)c1ccc(COc2cc([N+](=O)[O-])cc3cccnc23)cc1	-1	6	4.3	·	4	·	3
O=C(Nc1ccccc1)N(CCN1CCOCC1)Cc1ccccc1F	3	-1	-4.0	2849	2	-29	-4
Cc1nn(-c2ccccc2)c(C)c1C(=O)OCC(=O)N(C)c1ccccc1	6	4	0.5	9008	·	-15	0
Cn1nc(C(=O)Nc2ccc(S(=O)(=O)N3CCCC3)cc2)ccc1=O	6	5	4.9	4081	15	-17	2
COc1cc(NC(=O)CCc2c(C)nn(-c3ccc(N4CCOCC4)nn3)c2C)cc(OC)c1OC	13	0	1.6	4273	5	-38	2
